Screening results: PubChem, National Center for Advancing Translational Sciences (NCATS)
TRPML1 agonist: agonists of human TRPML1 channel; activation, % (test concentration not listed); Q9GZU1; TRPML1-expressing cells, Ca2+ dye fluorescence, FDSS; host cell line not named in the record; reference of the full effect not given here; 410,000 tested, 0.12% active; AID 624414; in the data active = activation above about 50%; inconclusive = about 30% to 50%; inactive = below about 30%; further: 0% is about no effect; the text of the record puts the active cut at 80%
Target sequence (Q9GZU1 whole entry, looked up): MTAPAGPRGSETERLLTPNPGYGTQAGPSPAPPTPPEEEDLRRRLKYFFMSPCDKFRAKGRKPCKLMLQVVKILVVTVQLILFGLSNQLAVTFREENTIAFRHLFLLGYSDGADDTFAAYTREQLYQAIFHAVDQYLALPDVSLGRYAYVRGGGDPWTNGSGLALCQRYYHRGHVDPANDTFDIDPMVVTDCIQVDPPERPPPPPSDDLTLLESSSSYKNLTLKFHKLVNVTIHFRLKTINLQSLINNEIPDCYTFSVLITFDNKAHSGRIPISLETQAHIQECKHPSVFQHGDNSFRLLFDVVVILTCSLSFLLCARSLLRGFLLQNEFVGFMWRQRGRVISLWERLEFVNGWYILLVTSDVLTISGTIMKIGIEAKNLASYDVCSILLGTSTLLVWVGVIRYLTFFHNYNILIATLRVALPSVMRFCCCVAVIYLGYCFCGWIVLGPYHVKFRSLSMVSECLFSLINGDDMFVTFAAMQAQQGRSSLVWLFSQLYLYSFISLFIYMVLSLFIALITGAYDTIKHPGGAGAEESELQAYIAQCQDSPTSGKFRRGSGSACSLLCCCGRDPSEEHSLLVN
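Agonist activity was taken from a 110 s kinetic Ca2+ dye read on the FDSS after pinning compounds onto TRPML1-DL cells. The cells were seeded at 1,500/well with Tet inducer, incubated about 16 h, then dye-loaded at room temperature.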
gsp ag: activates gsp, the McCune-Albright syndrome mutation; gsp mutant cells, cAMP HTRF, 30 min; control for the full effect not named in the record; Potency, µM (highest dose often 76.9 µM), without a hit: top-dose activation (cAMP increase), most hits filed as activators; 340,000 tested, 0.13% active; AID 624287; active = well fitted activation curve with a large enough effect; inconclusive = small, poorly fitted or top-dose-only effect, or another doubt; inactive = no such curve, though single readings can be large or run the other way; cell line not stated here;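 further: phosphodiesterase inhibitor Ro 20-1724 added with compounds to block cAMP breakdown; potency means the concentration at half of the fitted maximal effect; nearly all actives have a fitted effect of over 60% in size; about a fifth of the inactives were tested at one dose only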
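Cells stably selected in G418 were plated at 2000/well, grown 16-24 hr, then given compounds in DMSO with the PDE inhibitor […] (300 uM solution added) for 30 min at 37C; cAMP was read by HTRF.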
TRPML1 inh: inhibitors of human TRPML1 channel. activity change, negative = inhibition, % (test concentration not listed). Q9GZU1. TRPML1-inducible cells, Ca2+ dye fluorescence, FDSS; active compounds read low; inhibition of EC80 agonist-evoked calcium signal. AID 624415. 390,000 tested, 0.02% active; in the data active means activity change below about -50%; inconclusive means about -30% to -50%; inactive means above about -30%;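 further: stimulus is agonist 54-4 at its EC80 concentration; on the % scale 0 is the no-effect control and ±100 the full control effect; compound concentration not given in the record; the text of the record puts the active cut at -80%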
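TRPML1-DL cells, Tet-induced overnight (~16 h, 37 °C) at 1,500 cells/well, were loaded with Ca8 no-wash dye plus quencher for 45-90 min at room temperature. Compounds were pinned during FDSS kinetic reading; agonist 54-4 at EC80 (4 uM final) then added.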
Menin-MLL FL inh: menin-MLL binding inhibition, fluorescein peptide; FP activity change, % at 61.4 µM; 290,000 tested, under 10 active; Fluorescence polarization, fluorescein-MLL peptide displacement from menin; inconclusive = falling polarisation curve, or a change in total fluorescence; inactive = total fluorescence flat and polarisation flat or rising; no compound was filed as active; the % refers to the polarisation; negative = inhibition;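 further: % of control where 0% means no effect; inhibitors lower the polarisation; unlabelled MLL peptide was the positive control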
gsp antagonist: antagonists of gsp mutant (McCune-Albright syndrome); Potency, µM (titrated, usually from 76.9 µM), for inactives: at the top dose activity change, negative = inhibition, actives largely listed as inhibitors; AID 624288; 340,000 tested, 0.4% active; gsp-mutant cells, cAMP HTRF, 30 min; control for the full effect not named in the record; active = falling curve of any shape with a large fitted effect; inconclusive = falling curve, mostly with a smaller effect; inactive = flat or rising curve; cell line not stated here;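 further: intracellular cAMP measured with PDE inhibitor Ro 20-1724 present during compound exposure; potency means the concentration at half of the fitted maximal effect; on the % scale 0 is the no-effect control and ±100 the full control effect; nearly all actives have a fitted effect of over 65% in size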
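Cells, 2000/well, grown 16–24 h in DMEM 10% FBS with 0.5 mg/ml G418, then compounds plus […] (300 uM addition stock), 30 min at 37C. cAMP read by HTRF (cAMP-d2 and anti-cAMP antibody-K in lysis buffer) after 30 min RT.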
ClpP mod: qHTS Assay for Activators of ClpP; AID 651965, 2013; Potency, µM (top dose mostly 57.5 µM), for inactives: at the highest dose activity change, negative = active; purified B. subtilis ClpP, FRET peptide cleavage, 20 min; 340,000 tested, 1.9% active; ATP-dependent Clp protease proteolytic subunit (Bacillus subtilis (strain 168)), P80244; active = well fitted falling curve with a large enough effect; inconclusive = small, poorly fitted or top-dose-only effect; inactive = no such curve, though single readings can be large or run the other way; further: potency means the concentration at half of the fitted maximal effect; the source files actives as falling curves though it sought activators and does not explain the sign; nearly all actives have a fitted effect of over 65% in size; many hits overshoot -100%
Target sequence (P80244 whole entry, looked up): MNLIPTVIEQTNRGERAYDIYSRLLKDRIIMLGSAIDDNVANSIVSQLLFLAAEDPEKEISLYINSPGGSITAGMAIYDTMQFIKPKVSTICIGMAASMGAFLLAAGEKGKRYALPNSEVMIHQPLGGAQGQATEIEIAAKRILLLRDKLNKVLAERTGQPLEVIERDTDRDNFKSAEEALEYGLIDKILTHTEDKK
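ClpP 10 microg/mL final, pH 8 Tris/KCl buffer with BSA, glycerol, Tween-20; compound pinned in; FRET-FV substrate; RT 20 min; Ex320/Em430; ΔFRET vs ADEP 5.8 microM, DMSO, no enzyme.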
* hit, by the source's call; u = inconclusive; x = no result given; & = joins results of further samples; [ ] = dose if it differs, or a comment. Hits appear at their usual frequency (roughly 2.1% active in at least one column).

SMILES	TRPML1 agonist	gsp ag	TRPML1 inh	Menin-MLL FL inh	gsp antagonist	ClpP mod
CCC(c1nnc(SCC(=O)Nc2ccc(C(=O)N(C)C)cc2)n1Cc1ccccc1)N(C)C (configuration not stated)	0.6	-45%[inhibitor]	18	x	3%	-2.0%
Cc1csc(SCC(=O)Nc2ccc3c(c2)OCCO3)n1	0.0	-5%[15.4 µM]	0	2.2	1%	x
O=C1N[C@@H](Cc2ccccc2)COC(=O)[C@H](Cc2ccc(F)cc2)CC/C=C/C[C@@H]1CC(=O)N(CCO)Cc1ccccc1	0.6	x	-2	x	-24%	2.4%
CCCCC(CC)CNC(=O)C(=O)c1ccccc1NC(C)=O (configuration not stated)	-0.3	-19%[15.4 µM]	10	3.0	8%	-0.5%
O=C1C=C(c2ccc3c(c2)OCO3)C[C@@H](c2ccc(Cl)cc2)C1	1.6	3%	-2	x	7%	-17%
COC(=O)c1c(C)oc(C)c1S(=O)(=O)Nc1ccccc1	1.5	-5%	-3	0.4	0%	-1.3%
O=C(NCc1ccc2c(c1)OCO2)C(=O)Nc1ccccc1	-1.4	3%[15.4 µM]	8	-0.6	4%	-0.2%
COc1ccc(OC)c(S(=O)(=O)N2c3cc(F)ccc3CCC2C)c1 (configuration not stated)	2.6	15%	14	1.8	-28%	-1.8%
Cc1cccc(C(=O)NCC(=O)OCC(=O)N(C)CC(=O)Nc2ccccc2Cl)c1	1.5	-22%	7	x	2%	1.3%
CCC(C)NC(=O)c1cccc(C)c1 (configuration not stated)	1.0	11%[15.4 µM]	24	-3.9	2%	x
COc1ccccc1C(=O)C1CCCN(C(=O)c2cccnc2SC)C1 (configuration not stated)	0.8	5%[15.4 µM]	14	-0.7	-7%	x
Cc1cccc(C)c1OCC(=O)N/N=C/c1cccn1C	0.8	-23%	7	4.1	2%	-1.2%
Cc1ccc(S(=O)(=O)NNC(=O)Nc2ccc(Cl)c(Cl)c2)cc1	0.3	-26%	-4	-0.7	4%	0.4%
COc1ccc(S(=O)(=O)N2CCC(C(=O)NCCN3CCOCC3)CC2)cc1	4.5	-11%	-2	x	12%	x
Cc1ccc(Nc2nc(-c3ccccc3)cs2)nc1	-0.7	-16%	-11	0.0	-7%	-2.9%
COc1cc2c(C(=O)NCc3ccc(C)o3)cn(CC(C)C)c(=O)c2cc1OC	1.9	-3%	3	0.4	7%	-26%
N#CC1(c2nc3ccccc3[nH]2)CC1c1ccc2c(c1)OCO2 (configuration not stated)	5.8	-43%	40	4.7	8%	-0.1%
CCNC(=S)N1CCn2c(nc3ccccc32)C1	0.6	8%	10	-4.7	1%	0.8%
Cc1cccc(C(=O)NC2CCN(S(=O)(=O)c3ccccc3)CC2)c1	-0.4	8%[15.4 µM]	-6	-3.2	4%	-0.7%
O=C(NC1CC1)C1=C[C@@H](C2CC2)C[C@@H](OCc2ccc(CO)cc2)O1	0.1	x	1	7.3	6%	-0.8%
Cc1ccc(C)c(-c2csc(N/N=C/c3ccco3)n2)c1	-0.7	18%[15.4 µM]	12	-2.1	-10%	x
COc1ccc2c(c1)CCc1c(C(=O)NC3CCCCC3)noc1-2	3.1	-7%	49	-1.4	-23%	-1.3%
COc1ccc(N2CC(C(=O)N3CCCC(C)C3)CC2=O)cc1 (configuration not stated)	1.9	-6%	10	1.7	2%	1.0%
CCCCN(CC)CCCNC(=O)Cn1nc(Cc2ccncc2)c2ccccc2c1=O	0.0	-4%	-4	-1.3	1%	-4.3%
Cc1ccc(N(Cc2cc3ccc(C)cc3[nH]c2=O)C(=O)c2cccs2)cc1	0.7	-1%	-19	2.9	10%	-1.3%

Results in Menin-MLL FL inh and ClpP mod, for 4 of the compounds above:
| Molecule | Menin-MLL FL inh | ClpP mod |
| --- | --- | --- |
| Cc1ccc(C)c(-c2csc(N/N=C/c3ccco3)n2)c1 | -2.1 | x |
| COc1ccc2c(c1)CCc1c(C(=O)NC3CCCCC3)noc1-2 | -1.4 | -1.3% |
| COc1ccc(N2CC(C(=O)N3CCCC(C)C3)CC2=O)cc1 (configuration not stated) | 1.7 | 1.0% |
| CCCCN(CC)CCCNC(=O)Cn1nc(Cc2ccncc2)c2ccccc2c1=O | -1.3 | -4.3% |

Continuation.
SMILES	TRPML1 agonist	gsp ag	TRPML1 inh	Menin-MLL FL inh	gsp antagonist	ClpP mod
COC(=O)CCc1nc2cc(Cl)ccc2n(Cc2ccccc2)c1=O	1.5	-4%	37	-2.0	-12%	u
Cc1cc(C)c2nc(N3CCCC(C(=O)NCCCN4CCOCC4)C3)sc2c1 (configuration not stated)	4.1	-8%	15	1.6	1%	-6.0%
CCOC(=O)C1(CCOC)CCN(Cc2ccc(C(=O)OC)cc2)CC1	-0.5	-3%[15.4 µM]	5	1.5	12%	x
CCOc1cc(S(=O)(=O)NCC2OCCc3ccccc32)c(OCC)cc1-n1cnnn1 (configuration not stated)	-0.3	-14%	-2	1.3	0%	13µM*
CC(=O)N(c1ccc2oc(=O)sc2c1)S(=O)(=O)c1cccs1	-0.2	11%	6	0.2	-6%	1.2%
Cc1ccc(CSCC(=O)NCc2ccco2)cc1	-1.4	-2%[15.4 µM]	27	3.3	1%	0.6%
Cc1cc(NC(=O)c2cccs2)ncc1NC(=O)C(C)C	0.7	-4%[15.4 µM]	2	-2.4	0%	0.1%
O=C(/C=C\c1ccco1)NC(=S)Nc1ccccc1O	x	1%	x	u	-10%	-1.2%
O=C(COC(=O)c1cc([N+](=O)[O-])ccc1N1CCOCC1)Nc1cccc(F)c1	0.9	0%	-7	x	-4%	-1.6%
COc1ccc(CSc2nc(C)cc(C)c2S(C)(=O)=O)cc1	3.0	-21%[15.4 µM]	6	3.3	-4%	x
CCOc1ccc(N(CC(=O)NCc2ccc(OC)cc2)S(C)(=O)=O)cc1	x	-30%	x	-0.3	-13%	2.2%
COCCN(C(=O)COC(=O)C1(c2ccccc2)CC1)c1c(N)n(CC(C)C)c(=O)[nH]c1=O	-0.6	-25%	-8	x	5%	0.4%
O=C(Nc1nc2c(ccc3ccccc32)s1)c1ccco1	0.3	8%	1	7.3	-32%	-25%
Cc1ccccc1C(=O)N(C)c1ccccc1C(=O)NCc1ccccc1	-0.4	25%	15	-2.5	5%	-1.6%
Nc1c(C=C2C=CC(=O)C=C2)c(=O)nc2snc(SCc3ccccc3)n12	0.1	3%	-6	u	-15%	-1.0%
OCCNc1ncnc2c1nnn2Cc1ccccc1	0.0	-2%[15.4 µM]	1	-4.0	9%	-1.8%
COCCn1c(C)cc(C(=O)COC(=O)c2[nH]c(C)c(C(C)=O)c2C)c1C	-0.1	1%	2	x	u	-0.9%
O=C(CSc1nnc(-c2ccc(Cl)s2)o1)N1CCCc2ccccc21	-0.4	-1%	-4	2.7	-7%	-28%
COc1ccc(CN2CC[C@H]3C=CC[C@@H](C(=O)Nc4ccc(Cl)c(C(F)(F)F)c4)[C@H]3C2=O)cc1OC	1.0&-0.6	x	7	x	-22%	2.8%&1.1%
CC1CC2=C(CC1/C=N/NC(N)=S)C(C)(C)CCC2 (configuration not stated)	1.2	-19%	-7	1.5	0%	-24%
O=C(c1ccc(Cl)s1)N1CCN(c2ccccc2)CC1	1.4	12%	1	4.7	-2%	2.9%
COc1ccc2c(CNCc3ccco3)c(C(=O)O)n(Cc3cccc(F)c3)c2c1	1.8	x	-14	x	x	-24%
COc1cc(OC)cc(C(=O)NN2CCCCC2)c1	-0.5	-23%	-7	1.3	0%	0.8%
COc1ccc(C(=O)Nc2cccc(NC(=O)c3ccc(OC)c(OC)c3)n2)cc1OC	x	-27%	x	6.8	-33%	-0.3%
CCOC(=O)C1(Cc2cccc(OC)c2)CCCN(Cc2cnn(C)c2)C1 (configuration not stated)	1.0	-2%[15.4 µM]	5	-0.5	0%	x
(continued)
SMILES	TRPML1 agonist	gsp ag	TRPML1 inh	Menin-MLL FL inh	gsp antagonist	ClpP mod
COc1ccc(NC(=O)c2ccc(-c3ccc([N+](=O)[O-])cc3)o2)cc1	-0.1	17%	16	5.3	0%	x
CN1C(C(=O)Nc2ccc(OC(F)(F)F)cc2)=CC(c2ccc3c(c2)OCO3)=NS1(=O)=O	0.8&0.6	5%	39&-10	x	-15%	-2.6%
Cc1coc2c(C)c3oc(=O)c4c(c3cc12)CCCC4	0.6	-13%	24	2.0	3%	-6.7%
Cc1ccc(-n2nc3c(c2NC(=O)c2c(-c4ccccc4Cl)noc2C)CSC3)cc1	0.2	-6%	-5	-0.3	-6%	-1.1%
Cc1cc(Cl)ccc1N1C(=O)CC(SCCC(=O)O)C1=O (configuration not stated)	0.8	-5%	9	6.8	6%	-0.4%
Cn1cc(C[C@H](NC(=O)OC(C)(C)C)C(=O)N[C@H](CO)Cc2ccccc2)c2ccccc21	0.3	-7%	-21	x	0%	-16%
COCCCNc1nc(CC(C)C)nc2c1nnn2Cc1ccccc1	0.7	-1%	5	7.4	-15%	0.0%
CCOC(=O)c1cnc(SC)nc1N1CCCC1	0.5	-4%[15.4 µM]	-22	-0.3	x	x
Cc1ccc2c(c1)c(=O)c1ccccc1n2CCCC(=O)Nc1c(F)cccc1F	0.6	x	-8	x	x	4.3%
CC(C)Oc1ccc(C2CC(=O)NC3=C2C(=O)CCC3)cc1 (configuration not stated)	3.2	4%	-2	-0.6	4%	-4.0%
Cc1ccc(O)c(C(=O)c2cnc3c(c2)CN(CCC(C)C)C(=O)N3)c1	-0.2	u	-13	4.4	4%	-1.8%
CC(C)(CO)NS(=O)(=O)c1ccc2c(c1)oc(=O)c1cc(S(=O)(=O)NC(C)(C)CO)ccc12	0.3	-1%	4	-1.4	-19%	-30%
O=C(Nc1cccc(C(=O)Nc2ccc(F)cc2F)c1)c1ccccc1	1.3	-3%	-16	0.5	7%	-9.6%
COc1ccc(Nc2cc3n(c(=O)n2)CCc2cc(OC)c(OC)cc2-3)cc1	-1.9	-6%[15.4 µM]	-1	-1.1	33%	-0.5%
O=C(C1CC1)N1CCc2cc(S(=O)(=O)NCc3ccccc3)ccc21	0.4	-87%[inhibitor]	-13	x	-3%	-1.7%
COc1ccccc1/C=C1\SC(=S)N(CCC(=O)NCCCN2CCOCC2)C1=O	1.3	-16%[15.4 µM]	-9	u	0%	x
COc1ccccc1/C=C/C(=O)OCC(=O)Nc1c(F)cccc1F	0.2	-6%	-5	-3.1	-6%	x
CCNC(=O)CON=C1c2ccccc2-c2ccccc21	1.1	u	5	-0.8	2%	2.0%
Cc1cc(NC(=O)CSc2ncnc3c2cnn3-c2cccc(Cl)c2)no1	1.0	-10%	2	3.1	-11%	x
COC(=O)C1=C(C)N(Cc2ccc(C)cc2)C(=O)C1	0.3	1%	11	-3.1	-3%	-0.5%
